SARS PLpro yeast: inhibitors of SARS-CoV papain-like protease in yeast; S. cerevisiae expressing SARS-CoV PLpro, growth rescue; control for the full effect not named in the record; AID 485353; actives 0.19% (n = 330,000); Potency, µM (titrated, usually from 32.9 µM), inactives show at the highest dose activity, positive = growth rescue; note: 0% is about no effect; nearly all actives have a fitted effect of over 55% in size; growth read by luminescence after 48 h
MARV entry inh: inhibitors of Marburg virus binding or cell entry. Marburg virus pseudotyped entry inhibition, cell reporter; control for the full effect not named in the record; about a third of the inactives were read at about 46 µM. Potency, µM (highest dose often 37.8 µM), inactives show top-dose activity change, negative = inhibition, usual class: inhibitors. actives 1.8% (n = 300,000). AID 540276; active = well fitted inhibition curve with a large enough effect; inconclusive = small, poorly fitted or top-dose-only effect, or effect the other way; inactive = flat fitted curve, though single readings scatter; tested in HEK293 cells; about a fifth of its hits are not listed in these tables; note: % is set by controls: 0 for no effect and ±100 for the full control effect; luciferase read-out
NS1 inh: inhibitors of influenza NS1 protein function | actives 0.4% (n = 270,000) | AID 2326 | Potency, µM (top dose mostly 46.1 µM), for inactives: at the highest dose activity, positive = more growth | S. cerevisiae slowed by influenza A NS1, growth recovery by OD600; note: actives are rising curves; nearly all actives have a fitted effect of over 50% in size
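Read-out: OD600 growth recovery of NS1-expressing budding yeast. Cells grown overnight at 30C in -URA glucose medium, washed, resuspended and diluted 1:100 in 2% galactose assay medium, pH 6.0. Same strain lacking NS1 served as positive control.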
Cruzain inh noDet: inhibitors of Trypanosoma cruzi cruzain without detergent | P25779 | purified cruzain, Z-FR-AMC fluorescence, no detergent | Potency, µM, inactives show max response, negative = inhibition, most hits filed as inhibitors | actives 2.3% (n = 200,000); active = well fitted curve in the direction sought with a large enough effect; inconclusive = small, poorly fitted or top-dose-only effect, or another doubt; inactive = no such curve, though single readings can be large; an effect the other way counts as inactive or inconclusive;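 note: plate controls were enzyme without inhibitor for no effect and buffer without enzyme for full effect; nearly all actives have a fitted effect of over 40% in size; top concentration of the series not given in the record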
Target sequence (P25779 123-467 limits assumed): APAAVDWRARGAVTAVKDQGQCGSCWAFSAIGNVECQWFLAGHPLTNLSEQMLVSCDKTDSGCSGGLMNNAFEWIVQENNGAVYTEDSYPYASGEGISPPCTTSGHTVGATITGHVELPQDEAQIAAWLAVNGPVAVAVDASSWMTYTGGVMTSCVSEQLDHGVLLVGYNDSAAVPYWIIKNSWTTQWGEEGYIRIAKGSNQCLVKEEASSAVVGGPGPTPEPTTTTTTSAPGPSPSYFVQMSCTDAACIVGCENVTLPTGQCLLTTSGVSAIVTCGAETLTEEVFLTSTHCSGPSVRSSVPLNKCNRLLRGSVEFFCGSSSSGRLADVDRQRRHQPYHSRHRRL
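Purified cruzain at 1.5 nM, pre-incubated 15 min with compound at room temperature in 100 mM sodium acetate pH 5.5, 5 mM DTT, 0.00005% Triton X-100. Reaction started with 2 uM Z-FR-AMC; AMC fluorescence increase over 60 s gives rate.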
Cruzain Triton: inhibitors of Trypanosoma cruzi cruzain with detergent; purified cruzain, Z-FR-AMC fluorescence, 0.01% Triton; Potency, µM, inactives show max response, negative = inhibition, usual class: inhibitors; actives 0.43% (n = 200,000); P25779; active = well fitted curve in the direction sought with a large enough effect; inconclusive = small, poorly fitted or top-dose-only effect, or another doubt; inactive = no such curve, though single readings can be large; an effect the other way counts as inactive or inconclusive;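 note: plate controls were neutral wells for no effect and buffer without enzyme for full effect; nearly all actives have a fitted effect of over 40% in size; top concentration of the series not given in the record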
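Steps: dispense cruzain (1.5 nM final) in acetate buffer pH 5.5 with DTT and 0.01% Triton X-100; pin-transfer compounds; incubate 15 min RT; add Z-FR-AMC (2 uM final); read fluorescence every 30 s, using the 60 s intensity change.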
Lassa entry inh: inhibitors of Lassa virus binding or cell entry; Potency, µM (highest dose often 37.9 µM), without a hit: at the highest dose activity change, negative = inhibition, usual class: inhibitors; Lassa virus pseudotype entry inhibition, cell reporter; control for the full effect not named in the record; AID 540256; actives 1.2% (n = 300,000); active means well fitted inhibition curve with a large enough effect; inconclusive means small, poorly fitted or top-dose-only effect, or effect the other way; inactive means flat fitted curve, though single readings scatter; tested in HEK293 cells; note: % is set by controls: 0 for no effect and ±100 for the full control effect; nearly all actives have a fitted effect of over 50% in size; luciferase read-out
StopGo reporter: FMDV 2A StopGo reporter, luciferase signal; actives 1.2% (n = 410,000); human cells with a luciferase reporter of 2A StopGo recoding; control for the full effect not named in the record; AID 1159524; Potency, µM (highest dose often 57.9 µM), for inactives: at the top dose signal change, negative = less light; active = well fitted falling curve with a large enough effect; inconclusive = small, poorly fitted or top-dose-only effect; inactive = no such curve, though single readings can be large or run the other way; tested in HEK293T cells; note: % is set by controls: 0 for no effect and ±100 for the full control effect; nearly all actives have a fitted effect of over 45% in size; luciferase light after 4 h
RE007 growth inh: less growth of the S. pombe RE007 Vpr strain; S. pombe RE007 Vpr strain, BacTiter-Glo ATP luminescence, 24 h; control for the full effect not named in the record; Potency, µM (doses to about 92.2 µM), inactives show at the top dose activity change, negative = less growth; actives 0.21% (n = 360,000); active = well fitted falling curve with a large enough effect; inconclusive = small, poorly fitted or top-dose-only effect; inactive = no such curve, though single readings can be large or run the other way;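 note: % is set by controls: 0 for no effect and ±100 for the full control effect; nearly all actives have a fitted effect of over 50% in size; the assay follows cell death caused by Vpr and the record does not say whether a fall means rescue or toxicity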
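Fission yeast strain RE007, carrying one chromosomally integrated HIV-1 vpr copy, was seeded at OD 0.01 in PMG+AL medium with 23 nL pinned compound. After 24 h at 30 °C and 99% humidity, viability was read by BacTiter-Glo luminescence.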
Active calls of the source: *; u = inconclusive; x = no result given; & = joins results of further samples; [ ] = remark or other dose. Unless noted, calls come from the whole dose curve; as a rule, active means well fitted rising curve with a large enough effect; inconclusive means small, poorly fitted or top-dose-only effect; inactive means no such curve, though single readings can be large or run the other way. Potency is the fitted concentration of half-maximal effect.

SMILES | SARS PLpro yeast | MARV entry inh | NS1 inh | Cruzain inh noDet | Cruzain Triton | Lassa entry inh | StopGo reporter | RE007 growth inh
COc1cc(C(=S)N2CCOCC2)cc(OC)c1OC(=O)c1ccccc1[N+](=O)[O-] | u | 14%[46.1 µM] | 13% | x | x | u | -24% | 63%
Nc1c(-c2ccc(Cl)cc2)cnn1-c1cccc([N+](=O)[O-])c1 | 1% | 20% | 1% | 4% | -3.2% | 25% | 20% | 0%
O=c1c2ccccc2nc(SCc2ccccc2)n1Cc1ccco1 | -4% | -1% | -14% | -27% | -9.4% | -3% | u | 6%
CCOC(=O)c1cnn(-c2ccc(Cl)cc2)c1C1CCN(C(=O)OC(C)(C)C)CC1 | -7% | u | -74% | u | -8.4% | 3.3µM* | u | u
O=C(N/N=C1\C2CN3CCN(C2)CC1(c1ccccc1)C3)c1ccc(F)cc1 | 9% | -3%[46.1 µM] | 17% | 1% | 0.7% | 28% | 5% | 14%
CCOc1ccc(S(=O)(=O)N2CCCCC2)cc1NC(=O)c1ccccc1 | x | 8%[46.1 µM] | x | x | x | -2% | -5% | -4%
Cc1ccccc1N(C(=O)Cn1nnc2ccccc21)C(C(=O)NCc1ccco1)c1ccncc1 (stereo not given) | 1% | -28% | -1% | 5% | -1.9% | 14% | 55%[activator] | 14%
Cc1nnn(C23CC4CC(CC(CC(=O)Nc5ccc(C)c(Cl)c5)(C4)C2)C3)n1 | 5% | u | -3% | 11% | -6.3% | u | -12% | -2%
O=C1CCC/C(=N/NC(=O)c2ccc(CN3c4cccc5cccc(c45)S3(=O)=O)cc2)C1 | 21% | -16% | 14µM* | -2% | -4.8% | -20% | -28% | -1%
Cc1ccc(/C=N/NC(=O)c2ccccn2)o1 | 3% | -4% | -5% | 0% | -5.5% | 4% | 55%[activator] | 6%
Cc1onc(-c2c(F)cccc2Cl)c1C(=O)NCc1ccccc1 | 2% | x | 19% | x | x | x | -24% | -6%
COC(=O)c1ccccc1NC(=O)C12CC3CC(C1)CC(n1cnc(Cl)n1)(C3)C2 | -19% | u | -13% | 10% | -8.6% | u | u | -4%
O=C(CN1CCN(C(=O)c2ccccc2)CC1)Nc1cccc(S(=O)(=O)N2CCCC2)c1 | -4% | 1% | x | x | x | -1% | -20% | -20%
Cc1cc(NC(=O)COC(=O)COc2cccc3c2OC(C)(C)C3)no1 | -7% | 5% | -10% | -1% | 6.4% | 12% | -3% | 13%
CC(c1cccs1)N(Cc1ccco1)C(=S)Nc1ccc(F)c(Cl)c1 (stereo not given) | -8% | 0%[46.1 µM] | x | x | x | 21%[46.1 µM] | -10% | 8%
Cc1nc(N/N=C/c2ccccc2)nc(N(C)c2ccccc2)c1[N+](=O)[O-] | -1% | -30% | 17% | 16µM* | -1.3% | -6% | -23% | -4%
CC(=O)c1cccc(S(=O)(=O)N(CCCO)Cc2cc3ccc(C)cc3[nH]c2=O)c1 | 2% | 4% | -3% | -3% | -1.3% | -3% | -20% | 2%
Cc1ccc(C)c(N=Cc2c(O)c3ccccc3oc2=O)c1 | -3% | -14% | 3% | x | x | 12% | 23% | 4%
COc1cc(C2c3c(-c4c(C)cc(C)cc4O)n[nH]c3C(=O)N2CCCOC(C)C)cc(OC)c1OC (stereo not given) | x | u | x | 22% | -2.9% | u | 7% | x
O=C(COC(=O)c1ccc(Br)o1)NCc1ccco1 | x | -3% | 11% | x | x | 5% | -25% | 12%
O=C(c1ccccn1)C1CCCN(Cc2cn[nH]c2-c2cc3ccccc3o2)C1 (stereo not given) | -1% | x | 5% | x | x | x | 16% | -11%
O=C(C1CCCN1C(=O)c1cccs1)N1CCN(Cc2ccc3c(c2)OCO3)CC1 (stereo not given) | 1% | 6%&-7% | 3% | 2% | -5.4% | 11% | -14% | 10%
O=C(O)c1ccccc1SC1CC(=O)N(C2CCCCC2)C1=O (stereo not given) | -9% | x | 2% | 3% | -2.3% | x | -13% | 8%
Fc1ccc(NC(=S)Nc2ccc(Br)cc2)cc1 | -34% | -38% | -50% | 1% | -1.8% | u | -6% | -15%
O=C(CN1CC(c2ccccc2)CC1=O)Nc1ccccc1 (stereo not given) | 8% | x | 2% | 4% | -2.2% | x | 3% | 8%
COc1ccc(C/C(N)=N/OC(=O)c2ccco2)cc1OC | 0% | u | 1% | x | x | 22% | 3% | 21%
Cc1ccc(C)c(S(=O)(=O)N/N=C/c2ccc(N3CCOCC3)cc2)c1 | 1% | x | -31% | x | x | x | 88%[activator] | 4%
CCOC(=O)c1noc2nc(C)n(Cc3cccc([N+](=O)[O-])c3)c(=O)c12 | x | x | x | -5% | -3.0% | 6%[46.1 µM] | u | x
COCc1ccc(CN2CCC(CO)(CC3CCCCO3)CC2)o1 (stereo not given) | 1% | 14%[46.1 µM] | 8% | x | x | -1%[46.1 µM] | 2% | -1%
CCOC(=O)c1c(C)oc2c1c(C=NCCO)c(O)c1ccccc12 | -1% | u | -12% | x | x | u | u | 14%

Molecules listed so far with bromine:
SMILES | SARS PLpro yeast | MARV entry inh | NS1 inh | Cruzain inh noDet | Cruzain Triton | Lassa entry inh | StopGo reporter | RE007 growth inh
O=C(COC(=O)c1ccc(Br)o1)NCc1ccco1 | x | -3% | 11% | x | x | 5% | -25% | 12%
Fc1ccc(NC(=S)Nc2ccc(Br)cc2)cc1 | -34% | -38% | -50% | 1% | -1.8% | u | -6% | -15%

New compounds follow.
SMILES | SARS PLpro yeast | MARV entry inh | NS1 inh | Cruzain inh noDet | Cruzain Triton | Lassa entry inh | StopGo reporter | RE007 growth inh
Cc1ccc(C(=O)O)cc1NC(=O)C1CCCN1S(=O)(=O)c1cccc2nsnc12 (stereo not given) | 4% | 0% | 13% | -9% | -1.9% | x | 2% | 14%
COc1ccc(C(O)P(=O)(OC(C)C)c2ccc(N(C)C)cc2)c(OC)c1 (stereo not given) | 1% | x | -5% | x | x | x | 0% | -6%
O=C(Cn1nc(Cc2cccnc2)c2ccccc2c1=O)N1CCC2(CC1)OCCO2 | -3% | 11% | 3% | -3% | -3.4% | 8% | 3% | 15%
CSc1nc(Sc2ccc(Cl)cc2)c2ccccc2n1 | 5% | 8% | 16% | -13% | -2.9% | 22% | -23% | 3%
O=S(=O)(O)C(=Cc1ccccc1)c1ccccc1 (tested in a mixture with another compound) | x | 10% | x | x | x | 22% | -6% | 3%
O=C(NCC1CCCO1)c1ccccc1-c1nc(-c2ccc(Cl)cc2)no1 (stereo not given) | -8% | -11% | -4% | 7% | -1.4% | -6% | x | 2%
Cc1c2cnn(-c3ccccc3)c(=O)c2c(C)n1CCCC(=O)N1CCN(C2CCCCC2)CC1 | 0% | -12%[46.1 µM] | -1% | x | x | 0% | -22% | -27%
CCC1(C(=O)c2ccccc2)C(c2ccc([N+](=O)[O-])cc2)C1(C(=O)OC)C(=O)OC (stereo not given) | -43% | u | 4% | 6% | -6.0% | 0% | -27% | x
Clc1ccc(-c2nsc(N3CCOCC3)n2)c(Cl)c1 | -1% | u | -34% | x | x | u | 19% | u
Cc1cccc(/C=C2/S/C(=N/N=C3\CC4CCC3(C)C4(C)C)NC2=O)c1 (stereo not given) | -22% | u | 16% | -27% | -5.0% | 14µM* | u | u
CCCCN(C)CCNC(=O)c1cc2c(-c3ccccc3F)nn(C)c2s1 | 1% | u | 0% | x | x | u | -2% | -1%
O=S(=O)(Nc1nc2ccccc2nc1NCC1CCCO1)c1ccccc1 (stereo not given) | 0% | 0%[46.1 µM] | -4% | x | x | 12% | -3% | 4%
O=C(CSc1ncnc2nc[nH]c12)Nc1ccccc1C(F)(F)F | -1% | u | -1% | 5% | 11% | 5% | -9% | -17%
Cc1ccc2[nH]c3c(c2c1)CCN(C)C3 | 20% | x | -1% | x | x | x | 0% | -4%
O=C1C(=O)c2ccccc2C(O)=C1C1CCC(c2ccc(Cl)cc2)CC1 (stereo not given) | x | x | x | -15%&-1% | -5.4%&-0.5% | x | u | u
Fc1ccc(-c2csc3ncnc(N4CCc5ccccc5C4)c23)cc1 | -50% | u | -23% | u | -6.1% | -41% | u | 8%
O=C1CCc2cc(S(=O)(=O)Nc3ccccc3F)cc3c2N1CCC3 | -2% | u | x | x | x | -1%[46.1 µM] | 19% | -9%
Cc1c(C)c2ccc(OCC(=O)NC3CCN(Cc4ccccc4)CC3)cc2oc1=O | -4% | -38%[46.1 µM] | 1% | x | x | -26%[46.1 µM] | 1% | -2%
O=C(CNC(=O)C(c1ccccc1)c1ccccc1)N/N=C/c1cccnc1 | 0% | u | 4% | x | x | 8% | -21% | 4%
Cc1cccc(/C=N/n2c(-c3cc(-c4ccccc4)n[nH]3)n[nH]c2=S)c1 | 18% | 5% | 6% | -30% | -6.7% | u | -21% | 10%
CC1CN(c2ccc(S(=O)(=O)N3CCCC3)cn2)CC(C)O1 (stereo not given) | 0% | x | 1% | x | x | x | -12% | -15%
COCCNC(=O)COc1cccc(Oc2ccccc2)c1 | 6% | 15% | -13% | 3% | 5.5% | -9% | x | 9%
Cc1ccc(CNCc2cc3c(C(C)(C)C)nn(-c4ccccc4)c3[nH]c2=O)cc1 | -14% | u | -32% | -6% | 0.4% | u | x | u
CCN1C(=O)c2ccc(C(=O)Nc3ccc(O)cc3C)cc2C1=O | 1% | 2%[46.1 µM] | 2% | x | x | -7%[46.1 µM] | -4% | 10%
CC1(C)CC(=O)C(C=NCCN2CCN(C(=O)Cc3ccc(F)cc3)CC2)=C(O)C1 | -7% | 16%&16% | 3% | 1% | -1.7% | 3% | 3% | 4%
Cc1cccc(C(=O)NNC(=O)c2ccc(S(=O)(=O)N3CCOCC3)cc2)c1 | -1% | u | -2% | x | x | x | -3% | 5%
Cc1cc(C)c(S(=O)(=O)N2CCCCC2CCNC(=O)C(=O)NCc2ccco2)c(C)c1 (stereo not given) | -3% | u | x | x | x | u | u | 1%
